VACV Venus inh = vaccinia inhibition (Venus reporter) | AID 720580 | Potency, µM (series often up to 36.5 µM), for inactives: at the top dose activity change, negative = inhibition, usual class: inhibitors | Vaccinia virus Venus reporter expression, fluorescence | hit rate 0.46% among 330,000; active means well fitted inhibition curve with a large enough effect; inconclusive means small, poorly fitted or top-dose-only effect; inactive means no such curve, though single readings can be large or run the other way; tested in A549 cells; also: nearly all actives have a fitted effect of over 30% in size; inactives centre near -10
Vaccinia mCherry = vaccinia inhibition (mCherry reporter); Vaccinia virus mCherry reporter infection, fluorescence; about a quarter of the inactives have no number; hit rate 0.63% among 310,000; AID 720579; Potency, µM (series often up to 36.5 µM), for the others: at the top dose activity change, negative = inhibition, hits mostly inhibitors; active = well fitted inhibition curve with a large enough effect; inconclusive = small, poorly fitted or top-dose-only effect; inactive = no such curve, though single readings can be large or run the other way; tested in A549 cells; also: nearly all actives have a fitted effect of over 35% in size; inactives centre near -10
Active calls of the source: *; i = inactive; ? = inconclusive; · = no result given; [ ] = remark or other dose. % is scaled to controls: 0 for no effect and ±100 for the full control effect; potency is read from the fitted curve at half-maximal effect.

SMILES	VACV Venus inh	Vaccinia mCherry
COc1ccccc1CCNC(=O)c1ccc(-c2nc(CSc3ccc(C)cc3)c(C)o2)cc1	-4.4%	-16.3%
CS(=O)(=O)c1ccc(Cl)c(NC(=O)Cc2ccccc2F)c1	-6.9%	-1.7%
CC1(C)N=C(N)NC(Nc2ccc(Cl)cc2)=N1	6.5%	i
Cc1cccc(N=C2NC(=O)CS2)c1C	-1.6%	-10.1%
COc1cc(C(=O)Sc2ccc(Cl)cc2)cc(OC)c1OC	-9.6%	·
C=CCn1c(C)cc(C(=O)COC(=O)/C=C/c2c(C)nn(C3CCS(=O)(=O)C3)c2Cl)c1C (stereo not drawn)	-14.1%	-26.8%
O=C(CC1CCCCC1)Nc1ccc(-c2ccc3nncn3n2)cc1	-5.9%	9.0%
COc1ccccc1/C=C/C(=O)OCC(=O)Nc1c(F)cccc1F	-5.7%	i
COc1cc(C(C(=O)NC2CCCC2)N(CCO)C(=O)Cn2nnc(-c3ccc(C)o3)n2)ccc1O (stereo not drawn)	-4.6%	-0.1%
CCc1ccc[n+](-c2[nH]c(=O)sc2/C=N/N=C(\[O-])c2cccnc2)c1	4.7%	-11.3%
O=C(N/N=C/c1cccs1)c1ccc2nc[nH]c2c1	-3.3%	-12.5%
O=C(NC1CCCCC1)C(c1ccccc1)N(Cc1ccc2c(c1)OCO2)C(=O)c1cnsn1 (stereo not drawn)	-16.0%	i
O=Cc1ccc(C(=O)O)cc1	-8.0%	i
COc1ccc2c(c1)c1c(c(=O)n(-c3cccc(Cl)c3)c(=O)n1C)n2C	0.4%	-6.5%
C#CCOCCOCCOCCNc1nc(N2CCN(C(=O)[C@H](CCC(=O)O)n3cc(C(N)Cc4ccc(O)cc4)nn3)CC2)nc(N2CCN(C(=O)[C@H](Cc3cc4ccccc4[nH]3)n3cc(C(N)[C@H](C)CC)nn3)CC2)n1 (stereo partly drawn)	-20.7%	-22.0%
CCOc1ccc(CNC(=O)c2ccc3c(c2)nnn3C2CCCC2)cc1	-7.5%	-0.6%
CCCCC(c1nnnn1C1CCCC1)N1CCN(C2CCCCC2)CC1 (stereo not drawn)	-26.3%	·
CCc1ccc(-c2cc3c(=O)n(CC(=O)NCc4ccccc4F)ncn3n2)cc1	-2.7%	-9.6%
CS(=O)(=O)c1ccc(Cl)c(NC(=O)CNC(=O)c2ccc3c(c2)OCO3)c1	-4.0%	i
C(=C\c1ccccc1)/CN1CCN(C(c2ccccc2)c2nnnn2Cc2ccccc2)CC1 (stereo not drawn)	-10.8%	13.2%
O=C(NC(c1ccccc1)c1cnccn1)C1CCN(Cc2ccc(Cl)c(Cl)c2)CC1 (stereo not drawn)	-13.0%	10.6%
CN(C)c1ccc(CNC2CC(C)(C)NC(C)(C)C2)cc1	-13.8%	-25.4%
COc1ccc(C2CCCN2C(=O)Nc2ccc(F)cc2)cc1OC (stereo not drawn)	-10.3%	-8.0%
O=C1Cc2c(-c3ccccc3)cc(-c3cccc(Cl)c3)nc2-c2ccccc2N1	-11.3%	-6.3%
CCOC(=O)c1ccccc1NC(=O)CCc1c(C)nc2c(c1C)c(=O)n(C)c(=O)n2C	-7.2%	-14.6%
Cc1ccc(NC(=O)C(C)[n+]2ccccc2)cc1[N+](=O)[O-] (stereo not drawn)	-6.6%	-10.5%
O=C1OC(NCc2cccnc2)(c2ccc(Cl)cc2)c2ccccc21 (stereo not drawn)	5.7%	-3.6%
N#Cc1c(-c2ccccc2)ccn(Cc2cccc(Cl)c2)c1=O	-4.9%	·
CS(=O)(=O)c1cnc(-c2cccnc2)nc1N	-2.6%	-5.0%
O=C(Nc1ccccc1)O[C@@H]1C[C@H]2CCC(=O)N3CC[C@@H](C1)[C@@H]23	-13.3%	i

Structural class: the entries above containing an aryl methoxy group.
SMILES	VACV Venus inh	Vaccinia mCherry
COc1ccccc1CCNC(=O)c1ccc(-c2nc(CSc3ccc(C)cc3)c(C)o2)cc1	-4.4%	-16.3%
COc1cc(C(=O)Sc2ccc(Cl)cc2)cc(OC)c1OC	-9.6%	·
COc1ccccc1/C=C/C(=O)OCC(=O)Nc1c(F)cccc1F	-5.7%	i
COc1cc(C(C(=O)NC2CCCC2)N(CCO)C(=O)Cn2nnc(-c3ccc(C)o3)n2)ccc1O (stereo not drawn)	-4.6%	-0.1%
COc1ccc2c(c1)c1c(c(=O)n(-c3cccc(Cl)c3)c(=O)n1C)n2C	0.4%	-6.5%
COc1ccc(C2CCCN2C(=O)Nc2ccc(F)cc2)cc1OC (stereo not drawn)	-10.3%	-8.0%

Other compounds.
SMILES	VACV Venus inh	Vaccinia mCherry
CC12CCC(C(=O)Nc3cccc(NC(=O)C45CCC(C)(C(=O)O4)C5(C)C)n3)(OC1=O)C2(C)C	8.7%	0.3%
Nc1cccc(-c2cn(-c3cc4cc(C#CC5(O)CCCCC5)ccc4oc3=O)nn2)c1	-3.2%	5.8%
Cc1ccccc1NC(=O)N1CCCC1C(=O)NCc1cccs1 (stereo not drawn)	-0.8%	·
O=S(=O)(c1ccc2nc(N3CCN(c4ccccc4)CC3)ccc2c1)N1CCCCC1	-13.4%[7.34 µM]	-11.7%[7.34 µM]
O=C1C=C(c2cccs2)C[C@H](c2ccccc2)[C@H]1n1nnc([N+](=O)[O-])n1	?	?
COc1cccc(-c2cnc(C(O)c3ccc(C(C)(C)C)cc3)[nH]2)c1 (stereo not drawn)	-10.0%	13.6%
COCC(C)NCc1ccccc1C (stereo not drawn)	?	·
CCc1ccccc1OCC(=O)N(CC)CC(=O)NCc1ccc(F)cc1	-10.7%	-13.9%
CN1CCN(C(=O)c2ccc(N(Cc3ccccc3Cl)S(C)(=O)=O)cc2)CC1	-1.8%	·
COc1ccc(OC)c(CNC(=O)C2CCCN(C(=O)N(C)C)C2)c1 (stereo not drawn)	-8.5%	-7.1%
CCn1cc(SCC(=O)Nc2cc(C)on2)c2ccccc21	-0.1%	i
COc1cccc(CNS(=O)(=O)c2c(C)[nH]c(C)c2C(=O)N2CCCC2)c1	0.3%[7.34 µM]	-4.5%[7.34 µM]
COC(=O)C1=C(c2ccc(F)cc2F)C[C@@H]2CC[C@H]1N2C(=O)NC1CCCCC1	-3.4%	i
Nc1nc(CN2CCCCCC2)nc(Nc2ccccc2)n1	-16.1%	-18.3%
Cc1cccc2c1-c1sc(C(=O)N3CCN(c4cccc(Cl)c4)CC3)cc1CO2	-2.0%	-7.0%
c1ccc(-c2nnc(N3CCN(c4ccccc4)CC3)nc2-c2ccccc2)cc1	-4.9%[7.34 µM]	?
O=C(CN1C(=O)CSc2ccc(S(=O)(=O)N3CCOCC3)cc21)NCc1c(F)cccc1Cl	-10.6%	-6.4%
CNS(=O)(=O)c1cccc(C(=O)Nc2cccc(Cl)c2)c1	-20.8%	-6.7%
Cc1cc(C)c[n+](-c2nc3ccccc3nc2[N-]S(=O)(=O)c2ccc(Br)s2)c1	23.2%	-5.3%
C[C@@H]1CN([C@H](C)CO)C(=O)CCCn2nncc2CO[C@@H]1CN(C)C(=O)Oc1ccc2ccccc2c1	-4.9%	-14.8%
CCC(O)c1cc2c(cc1NC(=O)c1ccccc1F)OCCO2 (stereo not drawn)	-4.8%	-15.4%
CCOC(=O)c1nnc(-c2ccc(C)cc2)nc1Oc1ccc(Cl)cc1Cl	-13.1%	·
CN(C)C(=O)CN1C(=O)NC2(CCCc3ccccc32)C1=O (stereo not drawn)	-11.9%	i
Cc1nnc(NC(=O)c2ccc(S(=O)(=O)N3CC(C)OC(C)C3)cc2)o1 (stereo not drawn)	-9.2%	-1.3%
CCOC(=O)C1(C)CCN1C(=O)c1ccc(C(F)(F)F)cc1 (stereo not drawn)	-22.7%	i
Brc1ccc(-c2ccccc2)cc1	-8.2%	i
Cn1c(CNC(=O)CNS(=O)(=O)c2ccc(Br)cc2)cc(=O)n(C)c1=O	2.5%	-3.3%
C/C(CC(=O)Nc1ccc(N(C)C)cc1)=N\NC(=O)c1ccc([N+](=O)[O-])cc1Cl	-8.1%	-4.3%
COc1ccccc1/C=C/C(=O)c1c2c(c(C)[nH]c1=O)CCCC2	11.2µM*	?
CCCOC(=O)c1c(-c2ccc(C)cc2C)csc1NC(=O)C1C2CCC(O2)C1C(=O)O (stereo not drawn)	-14.4%	-29.0%
COc1ccc(OC)c(N2C(=O)NC(=O)/C(=C/c3ccc([N+](=O)[O-])s3)C2=O)c1	33.7%[activator]	20.2%
CCCCC(CC)CNC(=O)c1ccc2c(=O)n(Cc3ccc(OC)cc3)c(=O)[nH]c2c1 (stereo not drawn)	-1.1%	-13.7%
Cc1ccc(-c2nnc(SCC(=O)N/N=C/c3ccc(C(=O)O)cc3)n2C2CCCCC2)cc1	16.3%[7.34 µM]	6.0%[7.34 µM]
CN(CC(=O)Nc1cccc(F)c1)C(=O)C1CC(=O)N(Cc2ccco2)C1 (stereo not drawn)	-1.7%	i
COc1ccc(/C=N/OCC(=O)Nc2nc3ccccc3s2)cc1	-1.5%	-13.6%
Cc1ccc(CS(=O)(=O)c2ncc(Cl)c(C(=O)Nc3nnc(C(C)C)s3)n2)cc1	-8.9%	9.9%[7.34 µM]
Cn1ccc2c(-c3ccc(F)nc3)cc3c(c21)C1CCC3C1 (stereo not drawn)	5.2%	49.2%[activator]
O=c1c2ccccc2nc2n1C(CBr)CN2 (stereo not drawn)	-12.4%[7.34 µM]	i[7.34 µM]
Cc1occc1C(=O)Nc1nnc(C(F)(F)F)s1	-12.2%	-11.8%
CCCCn1c(SCC(=O)NC2CCS(=O)(=O)C2)nc2ccccc2c1=O (stereo not drawn)	0.5%	-5.0%
CC1(C)CCc2c([nH]c3ccccc3c2=O)O1	-16.5%	-16.8%
COc1ccc(-c2oc3ncn4nc(COc5cccc(C)c5C)nc4c3c2-c2ccc(OC)cc2)cc1	6.4%	-1.8%
COC(=O)[C@@H](NCc1cccc(CN[C@H](C(=O)OC)C(C)C)c1)C(C)C	-5.2%	-2.1%
Cc1cc(NC(=O)c2cc(-c3ccccn3)nc3ccccc23)no1	-1.6%	-6.4%
O=c1[nH]c(O)c(C=Nc2ccc(Cl)c(C(F)(F)F)c2)c(=O)[nH]1	-5.1%	-13.3%
Cc1ccc(S(=O)(=O)N2C[C@]3(O)C[C@@H]4C(=O)N(c5ccccc5)C(=O)[C@@H]4C[C@]3(OC(=O)NCc3ccco3)C2)cc1	-14.1%	1.1%
Nc1[nH]c(C(=O)c2ccccc2)c(-c2ccc(Cl)cc2Cl)c1C(=O)NCCc1c[nH]c2ccccc12	?	-1.0%
COCCN(C(=O)COC(=O)/C=C/c1cccc(C(F)(F)F)c1)c1c(N)n(CC(C)C)c(=O)[nH]c1=O	-10.6%	i
CC(=O)c1sc2c(c1C)c(=O)n(-c1ccc(Cl)cc1)c(=O)n2Cc1ccc(Cl)cc1	-5.0%	-13.9%
N#C/C(=C\c1c[nH]c2ccccc12)C(=O)NCC1CCCO1 (stereo not drawn)	5.1%	-12.6%
Cc1ccc(C)c(OCCC(=O)OCC(=O)NC2CC2)c1	9.3%	i
CCCN(CCC)S(=O)(=O)c1ccc(C(=O)Nc2nnc(-c3cc(OC)cc(OC)c3)o2)cc1	-3.8%	-21.1%
O=C(c1ccc(OC2CCN(CCc3ccccc3)CC2)cc1)N1CCCCC1CCCO (stereo not drawn)	-14.1%	-14.8%
CCCNc1ncc2c(=O)[nH][nH]c(=O)c2n1	-15.6%	i
Cc1ccc(OCC(=O)NC2CCCC2)c(C)c1	-10.9%	·
Cc1ccc(OCC(=O)N(Cc2ccco2)Cc2ccco2)cc1C	-10.3%	-1.1%
CC(=O)Nc1cc(C(=O)OC(C(=O)c2ccccc2)c2ccccc2)ccc1C (stereo not drawn)	-8.7%	-11.5%
CCn1c(C)nc2c1C(=O)c1ccccc1C2=O	-3.0%	i
COc1cc(C#Cc2c(-c3cncn3C)n(C)c3ccc(-c4ccc(CN5CCOCC5)cc4)cc23)cc(OC)c1	?	-29.2%
CCOC(=O)C(=NCC1CCCO1)NNc1cc(Cl)ccc1Cl (stereo not drawn)	2.3%	-12.9%
Next section.
SMILES	VACV Venus inh	Vaccinia mCherry
COc1ccc(Cc2nc3ccc(C(=O)NCc4ccc(OC)cc4OC)cc3o2)cc1	-8.1%	-6.4%
CCN(CC)S(=O)(=O)c1ccc(NC(=O)NCc2noc3ccc(C)cc23)cc1	-16.1%	-24.3%
CC(=O)c1cccc(NC(=O)CSc2nc(=O)n(CCCN3CCOCC3)c3c2CCC3)c1	-3.4%	-11.7%
CC1NC2(C(=O)N(Cc3ccccc3)c3ccccc32)C2C(=O)N(c3ccccc3)C(=O)C12 (stereo not drawn)	-8.2%	i
COc1cc(/C=N/NC(=O)C(=O)/C=C2\NC3(CCCC3)Cc3ccccc32)ccc1O	-24.7%	-29.9%
COc1cc(CNCc2ccccn2)ccc1OCc1ccc(Cl)cc1	-21.1%	-30.0%
O=C(NCCCCc1ccccc1)c1cccc(NC(=O)C2CCCC2)c1	-24.4%	-7.7%
COc1ccc(-n2nc(C(=O)N3CCN(c4cccc(C)c4C)CC3)c3c4ccccc4n(C)c3c2=O)cc1Cl	-13.9%	-4.2%

Record cards, from the list above. Order of values: VACV Venus inh | Vaccinia mCherry
`COc1cc(C(=O)Sc2ccc(Cl)cc2)cc(OC)c1OC` across the screens: -9.6% | ·
`CCc1ccc[n+](-c2[nH]c(=O)sc2/C=N/N=C(\[O-])c2cccnc2)c1` across the screens: 4.7% | -11.3%
`C(=C\c1ccccc1)/CN1CCN(C(c2ccccc2)c2nnnn2Cc2ccccc2)CC1` (stereo not drawn) across the screens: -10.8% | 13.2%
`COc1ccc(OC)c(CNC(=O)C2CCCN(C(=O)N(C)C)C2)c1` (stereo not drawn) across the screens: -8.5% | -7.1%

Bioassay records (PubChem BioAssay)
